# VDR inh: Inhibitors of the vitamin D receptor (VDR): qHTS; Vitamin D3 receptor (Homo sapiens), P11473; VDR-SRC2-3 peptide fluorescence polarization, 2 h; Potency, µM, for inactives: max response, negative = inhibition, usual class: inhibitors; 400,000 compounds, 0.93% hits; AID 504847, 2011; active = well fitted inhibition curve with a large enough effect; inconclusive = small, poorly fitted or top-dose-only effect, or another doubt; inactive = no such curve, though single readings can be large or run the other way; note: series mostly up to about 120 µM
# Target sequence (P11473 whole entry, looked up): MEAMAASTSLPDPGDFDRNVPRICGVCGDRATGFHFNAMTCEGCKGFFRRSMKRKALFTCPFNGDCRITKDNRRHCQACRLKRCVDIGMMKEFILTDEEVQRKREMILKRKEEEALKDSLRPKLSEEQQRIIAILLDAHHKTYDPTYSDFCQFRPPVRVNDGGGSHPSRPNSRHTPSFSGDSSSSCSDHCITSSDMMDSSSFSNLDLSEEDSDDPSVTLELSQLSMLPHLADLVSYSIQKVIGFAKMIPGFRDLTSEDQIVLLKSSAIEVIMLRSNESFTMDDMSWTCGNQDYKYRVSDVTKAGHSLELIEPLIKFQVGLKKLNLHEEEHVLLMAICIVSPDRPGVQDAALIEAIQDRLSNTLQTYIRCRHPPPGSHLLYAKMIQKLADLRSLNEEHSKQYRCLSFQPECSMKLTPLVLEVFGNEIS
#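 Inhibition of the VDR/SRC2-3 peptide interaction is quantified by fluorescence polarization. Compounds (23 nl, pintool) incubate with the reagents for 2 hours at ambient room temperature.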
# * hit, by the source's call; ? = inconclusive. % is set by controls: 0 for no effect and ±100 for the full control effect; potency is the fitted concentration of half-maximal effect. Only part of the results is shown (hit frequency here may not be typical).
canonical_smiles | VDR inh
O=C(O)C(Cc1c[nH]c2ccccc12)N1Cc2ccccc2C1=O (centres undefined) | 5.7%
CN(C)CCNS(=O)(=O)c1ccc(Cl)cc1 | 3.2%
COC(=O)Cn1c(O)c(N=NC(=O)CNC(=O)c2ccncc2)c2ccccc21 | 3.3%
COc1ccc(NC(=O)/C(Cl)=C(/Cl)S(=O)Cc2ccc(Cl)cc2)cn1 (centres undefined) | 11.2µM*
NS(=O)(=O)c1ccc(CCNC(=O)C2COc3ccccc3C2)cc1 (centres undefined) | 4.3%
Cc1ccccc1NC(=O)Cc1cccc(C(F)(F)F)c1 | -3.4%
CC(C)NC(=NCc1ccc(Cl)cc1Cl)Nc1ccccc1 | -13.7%
Oc1cccc(-c2nc3c4c(ncn3n2)-c2ccccc2CC42CCCC2)c1 | -4.3%
CNc1snc(C)c1C(=O)OCC(=O)N(C)c1ccccc1 | -6.8%
COc1ccc(Br)cc1C(=O)Nc1ccccc1N1CCN(C(=O)c2ccccc2)CC1 | 6.0%
COc1ccc(C(=O)COC(=O)c2nn(C)cc2Cl)cc1 | -7.1%
O=C(CS(=O)(=O)c1ccccc1)Nc1cccnc1 | 6.1%
CC1CCc2[nH]nc(C(=O)O)c2C1 (centres undefined) | -18.5%
Cn1c(=O)n(Cc2ccc(F)cc2)c(=O)c2c1nc1n2CCN1Cc1ccco1 | -9.1%
Cc1cc(NC(=O)c2cc(S(=O)(=O)N3CCCCC3)ccc2C)no1 | 2.4%
COc1ccc(C)cc1NC(=O)Cc1c(C(=O)O)n(C)c2ccccc12 | -11.2%
C/C(CC(=O)NC1CCCC1)=N\NC(=O)Cc1cccs1 | 6.3%
Cc1cc(C)cc(OCC(=O)OCC(=O)Nc2cc(S(=O)(=O)N3CCOCC3)ccc2C)c1 | 0.9%
N#Cc1c(NC(=O)c2cnn3cccnc23)sc2c1CCCC2 | 3.5%
NC(=O)CSc1nc(O)cc(=O)n1-c1ccccc1 | -8.9%

# Next part; the last seven above are carried over.
canonical_smiles | VDR inh
Cn1c(=O)n(Cc2ccc(F)cc2)c(=O)c2c1nc1n2CCN1Cc1ccco1 | -9.1%
Cc1cc(NC(=O)c2cc(S(=O)(=O)N3CCCCC3)ccc2C)no1 | 2.4%
COc1ccc(C)cc1NC(=O)Cc1c(C(=O)O)n(C)c2ccccc12 | -11.2%
C/C(CC(=O)NC1CCCC1)=N\NC(=O)Cc1cccs1 | 6.3%
Cc1cc(C)cc(OCC(=O)OCC(=O)Nc2cc(S(=O)(=O)N3CCOCC3)ccc2C)c1 | 0.9%
N#Cc1c(NC(=O)c2cnn3cccnc23)sc2c1CCCC2 | 3.5%
NC(=O)CSc1nc(O)cc(=O)n1-c1ccccc1 | -8.9%
COc1ccc(C(=O)N/C(=C/c2cccnc2)C(=O)N2CCN(C)CC2)cc1OC | -9.7%
Cc1cccc(NC(=O)CSc2nccn2C)c1 | -17.1%
O=C(Nc1nc(-c2ccccc2)ns1)c1ccncc1 | ?
Cc1ccc2nc3ccc(N4CCCC4)nn3c(=O)c2c1 | -3.7%
COc1ccccc1NC(=O)CN(c1cc(C)cc(C)c1)S(=O)(=O)c1c(C)[nH]c(=O)[nH]c1=O | -3.6%
CCOc1ccccc1N1CC(C(=O)Nc2cc(Cl)ccc2C)CC1=O (centres undefined) | ?
CC(=O)Cn1c(CN2CCCC2)nc2ccccc2c1=O | -12.6%
CCC(C)N(C(=O)CSc1nc2ccc(OC)cc2[nH]1)C1CCS(=O)(=O)C1 (centres undefined) | -6.2%
COc1ccc(NC(=O)[C@@H]2CCCN2C(=O)c2cccs2)cc1S(=O)(=O)N1CCCCC1 | ?
COCCCNC(=S)N/N=C/c1ccc2c(c1)OCO2 | -14.0%
N#CCCN(C(=O)COC(=O)CSc1ccc(Cl)cc1)c1ccccc1 | -2.8%
O=C(COC(=O)c1ccccc1[N+](=O)[O-])Nc1cc(S(=O)(=O)N2CCOCC2)ccc1N1CCCC1 | -20.2%
CC(NS(=O)(=O)c1cccc(Cl)c1)C(=O)Nc1ccc(-c2nc3ccccc3s2)cc1 (centres undefined) | 3.7%
CCCn1cc(C(=O)OCC)c(=O)c2cc(F)c(F)cc21 | 2.3%
Cc1ccc(C)c(N2CCN(c3nnnn3-c3ccccc3)CC2)c1 | -6.8%
O=C(Cn1c(C(F)(F)F)nc2ccccc21)N1CCCC1 | -7.6%
COc1cc(SC)ccc1C(=O)Nc1ccccc1C#N | 9.1%
Cn1c(CCNS(=O)(=O)c2ccc(F)cc2)nnc1SCc1cccnc1 | -8.2%
COc1ccc(NC(=O)COc2ccc(S(=O)(=O)NC3CCCCC3)cc2)c(OC)c1 | -9.2%
CC(=O)N1N=C(c2ccccc2)OC1c1ccc([N+](=O)[O-])s1 (centres undefined) | -16.2%

# Sorted by heavy-atom count (rising): some entries from above
canonical_smiles | VDR inh
O=C(Nc1nc(-c2ccccc2)ns1)c1ccncc1 | ?
N#CCCN(C(=O)COC(=O)CSc1ccc(Cl)cc1)c1ccccc1 | -2.8%
CCC(C)N(C(=O)CSc1nc2ccc(OC)cc2[nH]1)C1CCS(=O)(=O)C1 (centres undefined) | -6.2%

# In the list so far, 2 have a nitro group on carbon.
canonical_smiles | VDR inh
O=C(COC(=O)c1ccccc1[N+](=O)[O-])Nc1cc(S(=O)(=O)N2CCOCC2)ccc1N1CCCC1 | -20.2%
CC(=O)N1N=C(c2ccccc2)OC1c1ccc([N+](=O)[O-])s1 (centres undefined) | -16.2%

# The list continues.
canonical_smiles | VDR inh
COc1cccc(C2CC(=O)Nc3cc(OC)c(OC)c(OC)c32)c1OC(C)C (centres undefined) | -15.4%
Nc1nc2nc(Cl)[nH]c2c(=O)[nH]1 | -11.6%
CC(=O)N1CCCc2cc(S(=O)(=O)Nc3ccc(C)c(F)c3)ccc21 | -14.7%
Cc1cc(SCC(=O)NN=C2CCN(C(C)C)CC2)c(C)cc1Br | -11.9%
Cc1cc(Cl)ccc1C(=O)C1CCCN(C(=O)c2nonc2C)C1 (centres undefined) | 4.2%
Cc1cc(N2CCN(C)CC2)nc2ccc(NC(=O)CCC(=O)NCCc3ccc(Cl)cc3)cc12 | 12.6%
O=C(NCCCCCCNC(=O)c1cccs1)c1cccs1 | -11.3%
Cc1cc(C(=O)N/N=C/c2ccncc2)c2ccccc2n1 | 8.7%
COc1ccc2oc(=O)c(C(=O)OCc3ccccc3)cc2c1 | -10.7%
COCC(=O)N1CCC(Oc2ccc(C(=O)N[C@H](C(=O)OC)C(C)C)cc2)CC1 | -15.2%
CCOC(=O)c1c(-c2ccc(C)cc2)csc1NC(=O)c1cc(=O)c2cc(C)c(C)cc2o1 | 3.9%
O=C(CC(c1ccco1)S(=O)(=O)c1ccccc1)c1ccccc1 (centres undefined) | -2.4%
O=C(Nc1nnc(Cc2ccccc2)s1)C1CCN(C(=O)c2cccs2)CC1 | -6.9%
C=C(C)c1cccc(C(C)(C)NC(=O)NCc2cccnc2)c1 | -15.9%
Cc1ccc(C2c3sc(=O)[nH]c3SC3C4CC(C5C(=O)N(C(C)C(=O)O)C(=O)C45)C23)cc1 (centres undefined) | -15.9%
OC1O[C@H](c2ccc3c(c2)OCO3)[C@H]2CO[C@H](c3ccc4c(c3)OCO4)[C@@H]12 (some centres undefined) | -21.5%
COc1ccc(-c2nnc(NC(=O)C3CCCN3S(=O)(=O)c3cccs3)o2)cc1 (centres undefined) | -11.1%
Cc1cc(NC(=O)CSc2ncc(C(=O)Nc3ccc(F)cc3)c(=O)n2C)no1 | 10.5%
COc1ccc(C(=O)Nc2cccc3c2CCCC3)cc1 | ?
Cc1cc(C)cc(NCc2nnc3n2CCCCC3)c1 | 6.6%
Cc1ccc(C(=O)NC(=S)NNC(=O)c2ccccc2O)cc1 | -12.6%
Cc1c(C(=O)OCCOC(C)C)[nH]c2c1C(=O)CC(c1ccco1)C2 (centres undefined) | -4.1%
Nc1cc(=O)[nH]c(SCC(=O)NNC(=O)Cc2ccccc2)n1 | -14.7%
CC(C)CC(NC(=O)CCC(=O)OCC(=O)[C@@]1(O)CCC2[C@@H]3CCC4=CC(=O)C=C[C@]4(C)C3[C@@H](O)C[C@@]21C)C(=O)O (some centres undefined) | -3.0%
CCOc1ccc(C(=O)NCCN2CCCC2)cc1 | 8.8%
Cc1ccc(C)c(N2CCN(C(=O)Cn3cnc4onc(-c5ccc(F)cc5)c4c3=O)CC2)c1 | 17.7%
CCCC(=O)NCc1cc(-c2nn(C)c(=O)c3ccccc23)ccc1C | 4.4%
COc1ccc(C(=O)N/C(=C\c2ccc(SC)cc2)C(=O)NCCCn2ccnc2)cc1OC | -18.3%
COc1ccc(CN2CC(=O)N(c3ccccc3OC)C2=S)cc1OC | -4.9%
COc1ccc(N2CCN(C(=O)c3ccc4c(=O)n(Cc5ccc6c(c5)OCO6)c(=O)[nH]c4c3)CC2)cc1 | 2.6%
CC1CN(S(=O)(=O)c2ccc(C(=O)N(CCCN(C)C)c3nc4cc5c(cc4s3)OCCO5)cc2)CC(C)O1 (centres undefined) | 2.1%
COC(=O)[C@@H](NC(=O)/C=C/c1ccc(OC)cc1)C(C)C | -8.2%
CC1CCCCC1NC(=O)COC(=O)c1cccn1C (centres undefined) | -3.1%
COc1cc(/C=N/NC(=O)c2cc(-c3ccco3)nc3ccccc23)cc(OC)c1O | -1.2%
Cn1c(=O)c2ccccc2n(CC(=O)N2CCCc3ccccc32)c1=O | 7.1%
Cn1c(=O)c2c(nc(SCC(=O)NCC3CCCO3)n2C)n(C)c1=O (centres undefined) | -3.0%
COCCn1c(SCC(=O)Nc2nnc(C)s2)nnc1-c1ccoc1C | 2.6%
COCCCNC(=O)c1cnc2sc(N3CCCCCC3)nn2c1=O | 11.3%
C=CCn1c(=O)c2ccccc2n2c(SCC(=O)O)nnc12 | -14.2%
COc1ccc(Cl)cc1C(=O)Nc1ccc(S(N)(=O)=O)cc1 | 19.4%

# Later entries:
canonical_smiles | VDR inh
COC(=O)N[C@H](C[N+](=O)[O-])C(C)(C)C | -0.1%
Cc1ccc2c(c1)c1c(c(=O)n(-c3ccccc3)c(=O)n1CC(=O)NCCC1=CCCCC1)n2C | 6.9%
Cc1ccc(OCCn2cc(/C=C(\C#N)C(=O)NCC3CCCO3)c3ccccc32)cc1 (centres undefined) | -18.7%
COc1cc(C(C)=O)ccc1OCC(O)Cn1nc(C)c(C(C)=O)c1C (centres undefined) | -6.0%
COc1ccc(S(=O)(=O)Nc2ccc(CC#N)cc2)cc1 | 5.4%
CCOC(=O)c1cnc2ccc(C)cc2c1NCCN1CCOCC1 | 15.0%
COc1ccc(OC)c(CNS(=O)(=O)c2ccc(-c3cc(C(F)(F)F)on3)s2)c1 | 15.7%
COc1ccccc1C(=O)Nc1ccc(S(=O)(=O)Nc2nccs2)cc1 | -5.5%
CCOC(=O)c1c(C)nc2c(c1-c1ccccc1)C(=O)c1ccccc1-2 | -7.0%
CCOc1ccc(-c2nn(-c3ccccc3)cc2C2NC(=O)NC(C)=C2C(=O)OC(C)C)cc1 (centres undefined) | 14.6%
O=C(CCc1ccc(S(=O)(=O)N2CCOCC2)cc1)Nc1ccc2c(c1)OCCO2 | -7.3%
CC(C)(OC1OC(CO)C(O)C(O)C1O)[C@H]1Oc2ccc3ccc(=O)oc3c2[C@H]1O (some centres undefined) | 4.9%
CCOC(=O)C1CCN(C(=O)COC(=O)c2cccc(NS(=O)(=O)c3ccccc3)c2)CC1 | -11.3%
CCn1cc(C(=O)NCc2ccc3c(c2)OCO3)c(=O)c2cc(S(=O)(=O)N(C)C)ccc21 | -7.7%
CC(C)c1ccc(C2C3=C(COC3=O)Nc3cc4c(cc32)OCO4)cc1 (centres undefined) | 1.0%
O=C(NCC(c1ccco1)N1CCCC1)c1cc(S(=O)(=O)N2CCCCC2)ccc1Cl (centres undefined) | -5.2%
COc1ccc(CCNC(=O)C2CCN(S(=O)(=O)N3CCCCCC3)CC2)cc1OC | -1.7%
O=C(Cc1ccc(F)cc1)N1CCC(CC2CC(c3ccc(Cl)cc3)=NO2)(C(=O)NCC2CCCCC2)CC1 (centres undefined) | 0.7%
O=C(CSc1nnc(-c2ccccc2)o1)Nc1ccccc1F | ?
COc1cc(C2C(C(=O)c3sc(C)nc3C)=C(O)C(=O)N2CCN(C)C)cc(OC)c1OC (centres undefined) | 22.1%
Cc1ccc(Cn2c(=O)c3ccccc3n3c(-c4ccccc4)nnc23)cc1 | 7.0%
COc1cccc(-c2nnc3n(Cc4ccccc4Cl)c(=O)c4ccccc4n23)c1O | 11.4%
CCCCC[C@@H](/C=C/C1C(=O)C=C[C@H]1C/C=C\CCCC(=O)O)OC(C)=O (some centres undefined) | 79.4µM*
O=C(CN1C(=O)/C(=C/c2ccccc2Cl)SC1=S)NC1CCS(=O)(=O)C1 (centres undefined) | -24.7%
CC(=O)Oc1cccc(C(=O)Nc2ccc3c(c2)C(=O)N(CC2CCCO2)C3=O)c1 (centres undefined) | -0.9%
Cc1cccc(N(C(=O)c2snc(C(N)=O)c2N)C(C(=O)NCC2CCCO2)c2ccc(N(C)C)cc2)c1C (centres undefined) | -7.6%
CC(C)OCCCn1c(=S)[nH]c2ccc(N3CCOCC3)cc2c1=O | 9.0%
Cc1ccc(NC2CCCN(C(=O)C3CCCCC3)C2)cc1C (centres undefined) | -13.5%
O=C(CSc1ccccn1)N1CCN(c2ncc(C(F)(F)F)cc2Cl)CC1 | ?
CCOc1ccccc1NC(=O)C(OC(=O)c1cc(C)oc1C)c1ccccc1 (centres undefined) | -8.0%
CC(C(=O)Nc1cccnc1)N1C(=O)C2C3C=CC(C3)C2C1=O (centres undefined) | -12.6%
Cc1noc(C(=O)N2CCN(c3ccc(F)cc3)CC2)c1Cl | 8.1%
Cc1ccc(S(=O)(=O)NN=C2C(=O)C3CCC2C3Cl)cc1 (centres undefined) | -18.4%
Cc1ccc(CNC(=O)C2CCCN(S(C)(=O)=O)C2)cc1 (centres undefined) | 6.3%
CC1(C(=O)NC2CCCCCCC2)CCC(=O)N1Cc1cccnc1 (centres undefined) | 1.5%
COc1ccc(/C=C/c2ccc3c(Br)ccc(O)c3n2)cc1 | -10.1%
C[N+]1(C)C[C@@H](O)C[C@@H]1C(=O)[O-] | -8.7%
Cc1ccccc1NC(=O)Cc1nnc(SCC(=O)N2CCOCC2)n1C | 3.8%
